RGS16-Gao HTS = modulates binding between human RGS16 and Galphao | O15492+P09471 | bead-based flow cytometry RGS16-Galphao binding, fluorescence; actives lie on both sides | binding response (% of control), % at 10 µM | hit rate 0.38% among 220,000;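 active = below 25% or above 175%, edge rows of some plates excepted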;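 note: Galphao activated by GDP with aluminum fluoride before binding; 100% = wells without compound and 0% = beads without RGS; some results beyond the cut were filed as inactive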
Target sequence (O15492 whole entry, looked up): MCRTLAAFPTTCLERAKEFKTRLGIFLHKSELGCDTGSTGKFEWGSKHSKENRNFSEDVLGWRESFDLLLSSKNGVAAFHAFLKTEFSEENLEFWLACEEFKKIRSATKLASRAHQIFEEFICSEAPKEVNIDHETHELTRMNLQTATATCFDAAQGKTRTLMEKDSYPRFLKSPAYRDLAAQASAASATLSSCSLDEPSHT
Target sequence (P09471 whole entry, looked up): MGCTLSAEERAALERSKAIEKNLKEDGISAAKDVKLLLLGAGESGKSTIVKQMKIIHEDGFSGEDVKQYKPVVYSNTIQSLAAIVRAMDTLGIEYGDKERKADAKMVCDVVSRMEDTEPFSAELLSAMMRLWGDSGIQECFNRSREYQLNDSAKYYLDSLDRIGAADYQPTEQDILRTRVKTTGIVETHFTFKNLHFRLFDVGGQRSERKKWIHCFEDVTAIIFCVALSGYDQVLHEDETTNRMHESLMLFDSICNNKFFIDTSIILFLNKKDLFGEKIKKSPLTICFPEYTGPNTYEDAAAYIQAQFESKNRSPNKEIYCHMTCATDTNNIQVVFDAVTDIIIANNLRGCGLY
PKD1 inh = blocks activity of human protein kinase D1 | PKD1 kinase fluorescence polarization assay | inhibition, %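 (about 10 µM by stock and volumes)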 | Q15139 | hit rate 0.056% among 200,000 | AID 797;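 active = inhibition of 50% or more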;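 note: controls were vehicle for no effect and a reference inhibitor for full effect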
INS promoter inh = TRM-6 insulin promoter activity inhibition. inhibition, % at 2 µM. AID 1273. hit rate 0.9% among 130,000. TRM-6 cells (human fetal islet line), insulin promoter-eGFP reporter, imaging; reporter expression induced with tamoxifen;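 active = inhibition above the mean plus 3 SD, with well images judged a real hit on visual review, cut at about 60% in these data, passing the limit was not always enough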
HSV augment = HSV replication enhancement | HSV replication augmentation in cells, fold increase | maximum fold increase | hit rate 0.005% among 220,000;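 active = peak rise of 1.5-fold or more in the series; tested in PC3 cells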;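 note: first round at 10 µM; read as green reporter fluorescence; hits show the peak of a series up to 25 µM; 1 = signal of infected wells without compound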
GALR2 ag = activates the human galanin receptor 2; O43603; GALR2-expressing cells, agonist activation read-out; activation, %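 (tested at 5 µM)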; hit rate 0.48% among 140,000;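 active = above mean plus 3 SD of all compounds, about 5% in these data, not always enough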;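 note: 0% = vehicle buffer wells and 100% = reference agonist at full effect; tested in CHO reporter cells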
Target sequence (O43603 whole entry, looked up): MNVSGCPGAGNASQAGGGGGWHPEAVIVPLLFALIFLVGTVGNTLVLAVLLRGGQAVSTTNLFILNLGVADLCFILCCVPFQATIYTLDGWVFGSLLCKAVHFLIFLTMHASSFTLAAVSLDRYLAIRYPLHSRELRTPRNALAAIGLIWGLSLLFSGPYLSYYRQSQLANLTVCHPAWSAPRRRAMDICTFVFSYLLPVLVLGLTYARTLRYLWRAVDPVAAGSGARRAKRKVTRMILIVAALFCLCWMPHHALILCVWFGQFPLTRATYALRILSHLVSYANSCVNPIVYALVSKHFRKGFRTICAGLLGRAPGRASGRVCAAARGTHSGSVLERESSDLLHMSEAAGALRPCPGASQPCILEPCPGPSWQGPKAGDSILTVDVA
INS promoter inh cell count = second read-out of INS promoter inh, no call of its own (marks repeat the call); normalized cell count, %; measured here: cell count, toxicity; reference of the scale not given here;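 cells exposed to compound for 48 h; stained nuclei by imaging scaled within each plate; lower means fewer cells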
HSV augment primary fold = also measured in HSV augment; calls as there; fold increase; compound at 10 µM; measured here: primary screen fold increase 10 uM; tested in PC3 cells;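 GFP signal in the first replicate; 1 = infected wells without compound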
Active calls of the source: *; i = inactive; . = no result given; & = joins results of further samples. Hits appear at their usual frequency. Share with any hit: about 1.1%.

SMILES,GALR2 ag,PKD1 inh,HSV augment primary fold,INS promoter inh,INS promoter inh cell count,RGS16-Gao HTS,HSV augment
Cc1csc(SCC(=O)Nc2ccc(S(=O)(=O)N3CCCC3)cc2)n1,-1.2,-1,0.77,-12,112,103,i
CC(=C/c1ccco1)/C=N/NC(=O)c1ccncc1,.,.,1.1,.,.,101,i
COc1ccc2nc(N3CCCCC3)c(C#N)cc2c1,0.7,-12,1.1,.,.,98,i
Cc1cc(C)n(-c2ccc(C(=O)OCC(=O)c3c(N)n(C)c(=O)n(C)c3=O)cc2)n1,-2.3,3,0.9,-21,104,179,i
COC(=O)C1=C(C(=O)OC)[C@@H]2N(C)c3ccc(OC)cc3[C@@]23C[C@@H](C(=O)OC)N=C3N1,.,.,0.85,.,.,94,i
COc1ccc2nc(SCC(=O)O)nc(C)c2c1,-0.4,1,0.96,.,.,102,i
CC(C)(C)NS(=O)(=O)c1ccc(N2C(=O)c3ccccc3C2=O)cc1,-2.4,-6,0.86,29,118,96,i
Cc1[nH]c2ccccc2c1/C=N/NC(=O)c1cccc(S(=O)(=O)Nc2cccc(C(F)(F)F)c2)c1,.,-3,0.88,-25,132,110,i
COc1cccc(CNC(=O)C2CCN(S(=O)(=O)c3ccccc3)CC2)c1,-0.5,2,0.69,.,.,99,i
CCN(CC(=O)Nc1ccccc1OC)CC(=O)Nc1c(Cl)ccc(C)c1Cl,.,1,0.96,0,78,99,i
CCc1ccccc1NC(=O)c1cccs1,0.5,10,0.8,.,.,95,i
CC(NC(=O)Cc1ccccc1)C(c1ccccc1)N1CCOCC1 (stereo unspecified),.,0,0.97,-11,97,70,i
C=CCC(C)(NCc1ccccc1)c1ccc(C)cc1 (stereo unspecified),1.1,-6,1,4,120,106,i
Cc1cc(/C=C2\C(=N)N3N=C(CC(=O)N4CCOCC4)SC3=NC2=O)c(C)n1Cc1ccccc1,.,.,0.96,.,.,101,i
O=C(NCc1ccc(F)cc1)C(C(=O)NCc1ccc(F)cc1)c1ncc(C(F)(F)F)cc1Cl,.,7,0.96,0,85,96,i
O=C(Cn1c(=O)oc2ccccc21)Nc1nc(-c2ccccc2)cs1,-2.7,-1,0.88,25,108,98,i
COc1ccc(Br)cc1/C=N/N1CCN(Cc2ccccc2)CC1,.,.,0.92,.,.,101,i
COC(=O)Cc1c(C)c2ccc(OCC(=O)NCc3ccc4c(c3)OCO4)cc2oc1=O,-1.5,6,0.98,0,139,92,i
COCCNC(=O)c1cc2nc3c(c(C(F)(F)F)n2n1)CCc1ccccc1-3,.,4,1.1,38,106,102,i
O=S(=O)(NCC1CCCO1)c1cccc(S(=O)(=O)N2CCCC2)c1 (stereo unspecified),-1.0,-2,0.91,0,65,102,i
COC(=O)C1=C(NC(=O)c2ccccc2[N+](=O)[O-])CCS1,.,-3,0.94,-12,116,114,i
COc1ccc(-n2cc(-c3ccc(OC)c(OC)c3)[nH]c2=S)cc1,.,0,1,0,147,90,i
O=c1c(N2CCOCC2)c(N2CCOCC2)c1=O,.,.,1,.,.,93,i
CCCc1cc(C(=O)OC)c(NC(=O)c2cc(C)on2)s1,-3.7,-4,0.89,6,87,101,i
COCCNC(=O)C(c1ccc(C)o1)N(C(=O)c1snc(C(N)=O)c1N)c1cc(C)cc(C)c1 (stereo unspecified),0.8,2,0.95,-92,105,90,i
CCOC(=O)CC(=O)CSc1nc2ccccc2c(=O)n1-c1ccc(C(=O)N2CCOCC2)cc1,-0.4,-13,1.1,-19,95,96,i
CC1=C(OC(=O)c2ccc(Br)cc2)C(C)(C)C(c2ccccc2)OC1=O (stereo unspecified),0.2,-3,1.1,-41,43,98,i
COCCn1c(-c2ccc(Br)cc2)csc1=Nc1cccnc1,.,-8,0.97,.,.,107,i
O=C(NNc1cccc(Cl)n1)c1cccnc1Cl,-2.6,8,0.87,32,74,78,i
COC(=O)C1C(=O)c2c([nH]c(C(=O)OCC3CCCO3)c2C)CC1C (stereo unspecified),-0.8,8,0.78,.,.,103,i
c1ccc(C2=Nn3c(nnc3-c3ccccn3)SC2)cc1,-2.0,12,0.81,.,.,100,i
COCC(C)NCc1ccc(C)cc1C (stereo unspecified),-0.9,-1,0.89,-142,103,100,i
OC(c1ccccc1)(c1ccc(F)cc1)C(c1ccccc1)N1CCOCC1 (stereo unspecified),-0.9,-2,0.96,3,50,99,i
S=C(Nc1ccccn1)c1ccccn1,-1.4,-12,0.84,.,.,93&95,i
O=C1N(Cc2ccc(F)cc2Cl)c2ccccc2C12OCCCO2,-1.7,4,0.87,-58,180,105,i
CCOC(=O)c1cc(CC)sc1NC(=O)c1ccc2c(c1)OCCO2,0.6,0,0.94,.,.,99,i
Cc1c(/C=N\NC(=O)C2COc3ccc(C(C)(C)C)cc3O2)c2ccccc2n1C (stereo unspecified),-2.2,6,0.88,0,119,103,i
COc1ccc2cc(CN(C(=O)Nc3ccccc3)C3CCCC3)c(=O)[nH]c2c1,-1.1,-1,0.8,.,.,100,i
CCOc1[nH]c(/N=C/c2ccco2)c(C#N)c1C#N,-0.3,0,.,.,.,102,.
CCCCCC1CC(CC(=O)Nc2ccc([N+](=O)[O-])cc2)C(=O)O1 (stereo unspecified),0.3,-7,0.98,0,100,30,i
Cc1cc(C(=O)CN2C(=O)NC(C)(c3cccc(Br)c3)C2=O)c(C)n1Cc1ccco1 (stereo unspecified),-1.0,-1,0.84,.,.,97,i
Cc1ccc(SC(c2ccc(C)cc2)C(Cn2cncn2)C(=O)c2ccccc2)cc1 (stereo unspecified),1.3,-1,0.9,-11,118,115,i
Cc1cccc(C2NS(=O)(=O)N=C2N)c1 (stereo unspecified),-1.2,0,1,-14,116,103,i
Cc1cccc(NC(=O)Cn2c(/C=C/c3ccccc3)nc3ccccc32)c1,-1.1,4,0.79,.,.,116,i
NC(=O)NC(CC(=O)OCC(=O)NC(=O)NCc1ccco1)c1ccc(Cl)cc1 (stereo unspecified),-0.1,-10,1,.,.,85,i

The list goes on, overlapping the part above by 5 compounds.
SMILES,GALR2 ag,PKD1 inh,HSV augment primary fold,INS promoter inh,INS promoter inh cell count,RGS16-Gao HTS,HSV augment
Cc1cc(C(=O)CN2C(=O)NC(C)(c3cccc(Br)c3)C2=O)c(C)n1Cc1ccco1 (stereo unspecified),-1.0,-1,0.84,.,.,97,i
Cc1ccc(SC(c2ccc(C)cc2)C(Cn2cncn2)C(=O)c2ccccc2)cc1 (stereo unspecified),1.3,-1,0.9,-11,118,115,i
Cc1cccc(C2NS(=O)(=O)N=C2N)c1 (stereo unspecified),-1.2,0,1,-14,116,103,i
Cc1cccc(NC(=O)Cn2c(/C=C/c3ccccc3)nc3ccccc32)c1,-1.1,4,0.79,.,.,116,i
NC(=O)NC(CC(=O)OCC(=O)NC(=O)NCc1ccco1)c1ccc(Cl)cc1 (stereo unspecified),-0.1,-10,1,.,.,85,i
CC12CCC(C(=O)N(c3ccccc3Cl)C1=O)C2(C)C (stereo unspecified),1.3,3,0.96,-89,138,100,i
O=C(NNc1nc2cc3c(cc2s1)OCCO3)c1ccc(F)cc1,.,-3,0.92,22,158,102,i
O=S(Cc1ccc(Br)cc1)Cc1nnc(SCc2ccc(Cl)cc2)n1-c1ccccc1 (stereo unspecified),-1.4,9,0.79,10,140,90,i
COC(=O)CSc1cc(C(F)(F)F)nc(-c2ccccn2)n1,-4.0,-8,0.87,29,80,95,i
COc1ccc(CCN2C(=O)c3[nH]nc(-c4ccccc4O)c3C2c2ccccc2)cc1OC (stereo unspecified),-2.9,-6,0.79,3,92,98,i
CC(=O)Nc1ncnc2c1c(-c1ccc(Cl)cc1)nn2C(C)(C)C,.,1,0.97,.,.,102,i
CCC(=O)Nc1cccc(NC(=O)CN2CCN(c3ccccc3OC)CC2)c1,-2.2,-4,0.96,26,122,109,i
O=C(OCC(=O)N1CCOCC1)c1cccc(S(=O)(=O)N2CCCc3ccccc32)c1,.,.,0.71,.,.,98,i
COc1ccc(NCC(=O)N/N=C2\CCCC(C)C2)cc1 (stereo unspecified),-0.7,0,1,20,75,138,i
O=S(=O)(Nc1ccc(-c2cn3ccsc3n2)cc1)c1ccc2c(c1)OCCO2,-2.5,-5,0.96,21,117,86,i
COCC(C)NCC(=O)NC(C)CCc1ccccc1 (stereo unspecified),0.3,5,1,32,133,98,i
COC(=O)c1ccc2c(=O)n(Cc3ccc(C(=O)NCCCN4CCC(C)CC4)cc3)c(=S)[nH]c2c1,.,-1,1,.,.,99,i
COc1ccc2c(c1)CCc1c(C(=O)Nc3c(C)nn(Cc4ccccc4)c3C)noc1-2,0.9,3,1.2,-50,100,107,i
Cc1ccc(Cn2ncc3c(N4CCN(CCc5ccccc5)CC4)ncnc32)cc1,.,.,0.97,.,.,97,i
CC(C)CC(=O)NC(Nc1ccc([N+](=O)[O-])cc1)C(Cl)(Cl)Cl (stereo unspecified),-1.1,-10,1,-40,58,90,i
CCCS(=O)(=O)N1CCN(Cc2c[nH]c3ccccc23)CC1,.,11,0.96,.,.,102,i
O=C(C1=C[C@H](c2coc3ccccc3c2=O)C[C@H](OCc2ccc(CO)cc2)O1)N1CCN(Cc2ccc3c(c2)OCO3)CC1,.,2,0.83,.,.,107,i
O=C(NCc1cccc(Cl)c1)c1cccnc1,-0.8,-9,0.96,3,121,103,i
O=C(Nn1c(C2CCCCC2)nc2ccccc2c1=O)c1ccc([N+](=O)[O-])cc1Cl,-0.7,-14,0.97,37,109,94,i
CC(C)CCNc1nc(N)c([N+](=O)[O-])c(NCCO)n1,.,.,0.92,.,.,90,i
O=C(NN1C(=O)C2C3C=CC(C4CC34)C2C1=O)c1cccc(Cl)c1 (stereo unspecified),0.1,-9,0.86,-3,111,109,i
CCNc1nc(NC(C)C)nc(SCCOC(=O)c2ccccc2)n1,-0.5,-2,0.97,56,105,102,i
COc1cc(/C=N/NC(=O)Cc2csc(N3CCOCC3)n2)cc(OC)c1O,.,1,1.1,.,.,98,i
O=C(CCOc1ccccc1)Nc1ccc([N+](=O)[O-])cc1,.,2,0.96,-55,107,109,i
CN(CC(=O)NCCc1ccccn1)S(=O)(=O)c1ccc(Cl)cc1,.,9,0.94,.,.,110,i
Cc1cc(C)c2c(N)c(C(=O)NC3CCCC3)sc2n1,.,-2,1,.,.,131,i
COCCn1nnnc1C(c1ccc(OC)cc1)N1CCC(C)CC1 (stereo unspecified),-0.9,-7,0.93,.,.,104,i
Cc1csc(SCC(=O)NCCc2ccc(Cl)cc2)n1,1.2,-2,0.89,-16,121,107,i
O=C1NCC2=C1C(c1ccccc1)Nc1ccccc1N2 (stereo unspecified),-2.5,-7,0.82,-18,99,102,i
O=C(Nc1ncc(Cc2ccccc2Cl)s1)c1ccc([N+](=O)[O-])cc1,0.0,4,0.94,-19,91,100,i
CCn1c(SCc2ccccc2)nnc1C1CCN(S(=O)(=O)c2ccc(OC)cc2)CC1,-0.2,-5,0.95,-46,100,132,i
COc1ccc(N(CC(=O)N2CCN(Cc3ccc4c(c3)OCO4)CC2)S(C)(=O)=O)cc1OC,-3.1,-4,0.98,-45,75,126,i
O=C(Nc1ccc(C(=O)O)cc1)/C(=C\c1ccc([N+](=O)[O-])cc1)NC(=O)c1ccc(Br)cc1,.,1,0.91,47,88,35,i
CC(C)Oc1ccc(C(CC(=O)N(C)CCC#N)c2ccc(F)cc2)cc1 (stereo unspecified),-2.0,-5,0.97,10,122,96,i
CCn1nnnc1SCC(=O)NCc1cccs1,0.4,-1,1,.,.,101,i
CCOC(=O)c1ccc(NC(=O)N2CCc3ccccc32)cc1,-0.4,-5,0.89,-151,110,93,i
CCOC(=O)c1cnc2nc(C)[nH]n2c1=O,-1.3,0,0.97,12,83,104,i
O=C1C(=Cc2ccco2)C(=O)c2ccccc21,-0.9,3,0.96,-26,138,95,i
O=C(O)C1=C(C(=O)N2CCN(C(=O)c3ccco3)CC2)CCCC1,-2.2,-4,.,-6,126,98,.
Cc1cc(C)nc(Nc2nc(C)c3cc4c(cc3n2)OCO4)n1,-1.1,-5,0.98,8,66,101,i
c1ccc(-n2nc3c(ccc4cnnc43)[nH]2)cc1,-0.5,-2,0.97,.,.,102,i
